Mtb hypoxia inh: Mtb hypoxia fluorescent reporter inhibition; M. tuberculosis hypoxia-regulated fluorescent reporter, fluorescence; fluorescence inhibition, % (no concentration beside the values); 0.1% of 300,000 active;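 active = 35 to 45% if threefold the growth effect, above 45% if 1.5-fold the growth effect; inactive = the rest, general growth blockers included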;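 note: wells of about 50 µL received 100 nL stock; 0% = vehicle wells and 100% = reference inhibitor wells; whole bacteria with a GFP reporter of the hypoxia response; strong numbers were not always called active; many hits fall short of the cut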
Autofluor counter: flagged as autofluorescent in microsphere protease counterscreen. 3.1% of 360,000 active. fluorescence intensity (test concentration not listed). compound autofluorescence counterscreen, microsphere flow cytometry; active compounds read high;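 active = at least 3 SD above the mean of all compounds, about 16000 in these data; inconclusive = too few beads counted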;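 note: 100 nL of 1 mM stock went into each well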
Sa RN4220 lethal: kills Staphylococcus aureus RN4220; S. aureus RN4220 growth, OD600, 16 h; inhibition, % (no concentration beside the values); 0.33% of 330,000 active; AID 1259311;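 active = z-score of -3 or lower and OD600 up to 0.18 on both plates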;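 note: plate controls were untreated cells for no effect and reference antibiotic for full effect; stock transfer was 100 nL into about 80 µL; one replicate is shown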
Sa ugtP lethal: growth inhibition of S. aureus ugtP deletion strain. S. aureus RN4220 ugtP deletion, OD600 growth, 16 h; some inactives read as strong as hits. growth inhibition, % (test concentration not listed). 0.54% of 330,000 active. AID 1259309;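 active = z-score under -3 and OD600 up to 0.15 on both plates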;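 note: plate controls were untreated wells for no effect and antibiotic for full effect; wells of about 80 µL received 100 nL stock; the first replicate is given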
PrP 5UTR inh: inhibition of PrP 5' UTR reporter expression. cell-based PrP 5' UTR mRNA reporter, plate reader. inhibition, % (no concentration beside the values). 0.35% of 340,000 active. AID 488862;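 active = every replicate at 50% or more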;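 note: 0 = median of the neutral control wells; tested in H4 reporter cells; numbers are from one replicate; inactives centre near -14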
BJeLR viability: BJeLR cell viability loss; inhibition, % (concentration not given with the values); BJeLR (HRASV12) viability, CellTiter-Glo ATP luminescence, 48 h; reference of the scale not given here; AID 1554; 0.17% of 300,000 active;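 active = replicate mean above 50%; inconclusive = above 50% but judged a plate artefact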;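 note: 50 nL library stock added to about 25 µL; numbers are from one replicate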
Mtb hypoxia inh growth: also measured in Mtb hypoxia inh; calls as there; growth inhibition, %; measured here: M. tuberculosis growth (absorbance);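 0% = vehicle and 100% = reference antibiotic; read after six days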
* hit, by the source's call; ? = inconclusive; . = no result given. Rows were taken by chance. Share with any hit: about 3.9%.

SMILES	Mtb hypoxia inh	Mtb hypoxia inh growth	Autofluor counter	Sa RN4220 lethal	Sa ugtP lethal	PrP 5UTR inh	BJeLR viability
Cc1ccc(Sc2c(C)nn(C(=O)c3cccc(S(=O)(=O)N4CCOCC4)c3)c2C)cc1	-11	0	10880	3.2	-13	-8	11
O=S(=O)(c1ccc(NC(=S)N2CCN(c3ccccc3F)CC2)cc1)N1CCOCC1	1	0	3473	2.7	7	4	6
CCOC(=O)COc1nc(-c2ccccc2)cc(-c2ccco2)c1C#N	-4	2	3621	7.4	1	-31	-1
CCCCOc1ccc(C(=O)Oc2cccnc2)cc1	-1	-1	3878	4.9	3	-9	-9
COc1ccc(CCNC(=O)CC(NC(=O)c2ccccc2Cl)c2ccccc2)cc1 (stereo unspecified)	0	0	10542	7.6	0	-23	-4
Cc1cc(F)c(F)c(C(=O)N2CCOCC2)c1Cl	.	.	3821	-0.2	9	-21	-9
CCc1nc(Nc2cccc(O)c2)c2oc3ccccc3c2n1	-5	15	3974	26	5	7	0
CCc1ccccc1NNC(=O)CCc1ccccc1	5	7	4049	4.1	5	-15	-10
O=C(COc1ccccc1)Nc1ccncc1Cl	5	5	6500	4.2	3	-61	1
Cc1cccn2c(=O)c3cc(C(=O)N(C)C)n(C)c3nc12	7	8	10708	4.7	-2	-22	-4
COC(=O)[C@@]1(C)[C@H]2C(=O)N(Cc3ccccc3)C(=O)[C@H]2[C@H]2CN=C(SCc3ccc(C)cc3)N21	-2	6	3621	6.1	-10	-9	.
O=C(CCl)N1CCN(S(=O)(=O)c2ccc3ccccc3c2)CC1	13	8	5212	5.8	12	-15	0
CC(=O)c1ccc(OCCCC(=O)NCCc2ccc(C(F)(F)F)cc2)cc1	-4	-14	3533	-2.9	0	-12	-4
COc1cc(/C=C2\C(=O)ON=C2c2ccccc2)cc(OC)c1OC	15	4	2967	-6.6	-3	-10	-1
O=S(=O)(Nc1ccc(-c2ccccc2)cc1)c1ccccc1	1	4	3926	0.2	-6	-16	.
O=C(CC1C(=O)NCCN1Cc1c(F)cccc1Cl)NCCCOc1cccnc1 (stereo unspecified)	-8	-16	5336	-4.3	-8	-2	5
O=c1c2cc(Cl)cc(Cl)c2nc(CN2CCOCC2)n1-c1ccccc1F	-4	10	4056	2.5	-4	-6	-4
O=C(NC12CC3CC(CC(C3)C1)C2)c1ccc(=O)oc1	.	.	2233	-1.2	3	-13	1
Cc1cccc(NC(=O)COc2ccc(Br)cc2C)n1	13	2	2516	-10	-6	-99	7
C=CCNC(=O)CC(=O)NN=Cc1ccccc1F	10	8	.	2.1	-6	.	.
Nc1nccc(-c2cccs2)n1	8	1	4344	4.5	10	-9	-2
O=C(NC1CC2CCCC(C1)N2Cc1ccccc1)c1ccc([N+](=O)[O-])cc1 (stereo unspecified)	-5	2	3990	2.7	8	-19	6
CN(C)S(=O)(=O)c1cccc(NC(=O)COC(=O)/C=C/c2ccc(Br)o2)c1	8	11	4638	6.4	-5	-30	-10
COc1ccc(NC(=S)NC(NC(=O)CF)C(Cl)(Cl)Cl)c([N+](=O)[O-])c1 (stereo unspecified)	1	3	10489	8.7	0	-6	3
CCCC1CC(CSC(=N)N)OC1=O (stereo unspecified)	.	.	2787	8.8	9	-24	8
CCOC(=O)C1CCCN(C(=O)c2cc(-c3ccccc3)nc3ccccc23)C1 (stereo unspecified)	6	2	4509	2.2	-1	-19	-3
O=C1CCCC(=NNC(=O)c2ccc(COc3cccc4cccnc34)cc2)C1	2	8	.	3.5	-1	.	.
CN(Cc1ccccc1N1CCCC1)C(=O)c1cc2ccccc2o1	8	11	7930	3.8	5	-37	.
O=C(/C=C\c1ccco1)NC(=S)Nc1ccccc1O	15	13	4655	5.8	6	-34	13
COc1cc(SC)ccc1C(=O)NCCOc1ccc(C)c(C)c1	4	-5	10422	1.9	15	-31	-7
O=C(NCc1ccc(Cl)cc1)C1CCN(S(=O)(=O)c2cccs2)CC1	13	9	3624	1.7	1	-22	-1
N=c1c(C(=O)NCc2ccco2)cc2c(=O)n3ccccc3nc2n1Cc1ccccc1	.	.	6025	-1.7	-9	-3	2
O=C1c2ccccc2C(=O)N1Cc1nc2ccccc2c(=O)n1-c1ccccn1	.	.	3111	1.2	-4	6	.
Cc1ccccc1OCCC(=O)OCC(=O)Nc1c(C)nn(-c2ccccc2)c1C	-8	-1	5966	1.0	-1	-5	-5
Cc1cc(C)cc(NC(=O)Nc2cc(-c3ccccc3)nn2C)c1	10	3	4700	5.2	-18	-33	-3
CN(C(=O)c1cccc(NC(=O)Cc2ccc(NC(=O)C3CCN(C(=O)C4CCCCC4)CC3)cc2)c1)C1CC1	2	1	2887	4.7	2	-13	.
COc1ccccc1NC(=O)CCNS(=O)(=O)c1ccc2[nH]c(=O)oc2c1	1	7	5777	1.8	5	3	2
COc1cc(C(=O)NCC(c2ccco2)N(C)C)cc(OC)c1OC (stereo unspecified)	2	13	2206	2.5	0	-9	8
Cc1ccnc(N2CCC(C(=O)NC3CCCCCC3)CC2)n1	2	-3	15695	0.7	4	-5	4
COCCN1Cc2cccc(C(=O)NCc3ccccc3OC)c2C1=O	.	.	3407	7.6	-1	-1	-2
COc1ccc(S(=O)(=O)N2CCOCC2)cc1NC(=O)CON=Cc1ccccc1OC(F)F	4	3	.	3.0	-7	.	.
O=C(CCC1CCCN(C(=O)c2ccc3cc[nH]c3c2)C1)N1CCN(c2ccccn2)CC1 (stereo unspecified)	8	6	4772	2.0	3	-23	3
CC(C)n1cnc2c(NCc3ccccc3)nc(NCc3ccccc3)nc21	15	4	4851	3.0	8	-23	-10
COC(=O)C1=C(c2ccc(C(C)=O)cc2)CC2CCC1N2C(=O)NC1CC1 (stereo unspecified)	5	3	.	1.9	-2	.	.
O=C(C1CCN(C2CC(=O)N(c3cccc(Cl)c3)C2=O)CC1)N1CCCC1 (stereo unspecified)	.	.	4616	.	.	-14	-7
CN1CCN(/N=C/c2c[nH]c3ccccc23)CC1	.	.	?	.	.	-5	-3
CCCn1nc(NS(=O)(=O)c2cccc3nonc23)c2cc3cccc(C)c3nc21	2	1	6403	37	-1	-2	3
CN(c1cccc(Cl)c1)S(=O)(=O)c1cccc(C(=O)NCc2ccncc2)c1	2	-1	3975	3.3	0	-18	.
Cc1ccc2c(c1)c1c(n2CC2COC(C)(C)O2)C(=O)CCC1 (stereo unspecified)	14	3	9375	3.7	0	-26	-1
COc1ccc(C(=O)N2CCCCC2)cc1S(=O)(=O)Nc1cccc(C(=O)O)c1	2	-4	10443	-3.1	-1	-27	9

The listing continues.
SMILES	Mtb hypoxia inh	Mtb hypoxia inh growth	Autofluor counter	Sa RN4220 lethal	Sa ugtP lethal	PrP 5UTR inh	BJeLR viability
Cc1ccc(OCCC(=O)OCC(=O)NC2CCCC2)cc1	2	-8	4682	5.1	8	-18	1
Cc1c(C(=O)O)oc2ccc(S(=O)(=O)NC3CCCCCCC3)cc12	0	3	10304	1.5	9	9	-7
NC(=O)Nc1ccc(C(=O)OCC(=O)N2CCCC2=O)cc1	11	5	3983	5.2	2	-25	.
CC(=O)c1cccc(NC(=O)CSc2nnc(C(C)N(C)C)n2Cc2ccccc2)c1 (stereo unspecified)	0	5	3700	0.4	1	-11	-10
CC(C)C(=O)N1N=C(c2ccc(NS(C)(=O)=O)cc2)CC1c1cccs1 (stereo unspecified)	4	3	7486	4.0	4	-21	5
COc1ccccc1CNC(=O)CCNC(=O)Cn1ccc2ccccc2c1=O	-3	3	10389	3.1	1	-32	-10
NCc1cccc(-n2cccn2)c1	7	6	21167*	6.2	-2	1	-1
CC(=O)NCCNC(=O)c1ccc(Cn2c(=O)[nH]c3ccsc3c2=O)cc1	10	9	3742	1.4	8	-21	0
CCOc1ccc(NC(=O)Cn2nnc3c(cnn3-c3ccc(F)cc3)c2=O)cc1	14	10	4711	-2.5	7	3	-1
COc1ccccc1C(=O)Nc1sc2c(c1C(N)=O)CCCC2	2	-1	3253	7.3	8	-45	-2
O=c1[nH]c2ccccc2c(O)c1O	.	.	5368	7.7	-3	-8	3
NC(=O)c1ccc[n+](CC(=O)Nc2ccccc2C(=O)O)c1	-1	4	2901	-1.2	12	-31	1
COc1ccc(S(=O)(=O)N(C)C[C@H]2Oc3c(NS(=O)(=O)c4ccc(F)cc4)cccc3C(=O)N([C@H](C)CO)C[C@@H]2C)cc1	-8	2	3686	4.8	2	-20	.
CC(C)C(NS(=O)(=O)c1cccs1)C(=O)Nc1nc(C(C)(C)C)cs1 (stereo unspecified)	6	7	10579	3.4	-5	-6	-12
CC(=O)Nc1nnc(-c2ccco2)o1	11	2	3963	3.0	18	-19	14
CN1CCN(c2ccc(C(CC(N)=O)NC(=O)c3ccccc3)cc2[N+](=O)[O-])CC1 (stereo unspecified)	2	13	3817	0.1	-2	-1	-4
Cc1ccc(S(=O)(=O)N2CCN(C(=O)CN3C(=O)NC(C)(c4ccc5ccccc5c4)C3=O)CC2)cc1 (stereo unspecified)	-9	1	3572	-2.8	-4	-18	.
Cc1cc(-c2nnc(SCC(=O)Nc3ccc(S(N)(=O)=O)cc3)n2N)n[nH]1	1	-9	4272	4.9	7	-12	0
CCN(CC)C(=O)CC(c1ccc(F)cc1)c1ccc(OC)cc1 (stereo unspecified)	1	-5	2452	-0.8	5	-22	0
O=C(NC12CC3CC(CC(C3)C1)C2)c1ccccc1	24	14	4492	8.8	9	-17	3
O=C(c1ccccc1)c1ccc(Cn2cc(CCCO)nn2)cc1	0	-4	3546	3.3	0	-18	3
CCC/C(O)=C1\C(=O)CC(C)(C)CC1=Nc1ccc(OC)cc1	6	-2	3076	1.6	2	-15	10
O=C(COc1ccc(Br)cc1)N/N=C1\SCC(=O)N1c1ccc(F)cc1	.	.	2124	.	.	-9	-7
COc1ccccc1NS(=O)(=O)c1cccc(N2CC(O)=C(c3ccccc3)C2=N)c1	19	17	2405	-5.3	19	-52	3

15 entries from above, in CSV form.
mol,Mtb hypoxia inh,Mtb hypoxia inh growth,Autofluor counter,Sa RN4220 lethal,Sa ugtP lethal,PrP 5UTR inh,BJeLR viability
COc1ccccc1C(=O)Nc1sc2c(c1C(N)=O)CCCC2,2,-1,3253,7.3,8,-45,-2
O=c1[nH]c2ccccc2c(O)c1O,.,.,5368,7.7,-3,-8,3
NC(=O)c1ccc[n+](CC(=O)Nc2ccccc2C(=O)O)c1,-1,4,2901,-1.2,12,-31,1
COc1ccc(S(=O)(=O)N(C)C[C@H]2Oc3c(NS(=O)(=O)c4ccc(F)cc4)cccc3C(=O)N([C@H](C)CO)C[C@@H]2C)cc1,-8,2,3686,4.8,2,-20,.
CC(C)C(NS(=O)(=O)c1cccs1)C(=O)Nc1nc(C(C)(C)C)cs1 (stereo unspecified),6,7,10579,3.4,-5,-6,-12
CC(=O)Nc1nnc(-c2ccco2)o1,11,2,3963,3.0,18,-19,14
CN1CCN(c2ccc(C(CC(N)=O)NC(=O)c3ccccc3)cc2[N+](=O)[O-])CC1 (stereo unspecified),2,13,3817,0.1,-2,-1,-4
Cc1ccc(S(=O)(=O)N2CCN(C(=O)CN3C(=O)NC(C)(c4ccc5ccccc5c4)C3=O)CC2)cc1 (stereo unspecified),-9,1,3572,-2.8,-4,-18,.
Cc1cc(-c2nnc(SCC(=O)Nc3ccc(S(N)(=O)=O)cc3)n2N)n[nH]1,1,-9,4272,4.9,7,-12,0
CCN(CC)C(=O)CC(c1ccc(F)cc1)c1ccc(OC)cc1 (stereo unspecified),1,-5,2452,-0.8,5,-22,0
O=C(NC12CC3CC(CC(C3)C1)C2)c1ccccc1,24,14,4492,8.8,9,-17,3
O=C(c1ccccc1)c1ccc(Cn2cc(CCCO)nn2)cc1,0,-4,3546,3.3,0,-18,3
CCC/C(O)=C1\C(=O)CC(C)(C)CC1=Nc1ccc(OC)cc1,6,-2,3076,1.6,2,-15,10
O=C(COc1ccc(Br)cc1)N/N=C1\SCC(=O)N1c1ccc(F)cc1,.,.,2124,.,.,-9,-7
COc1ccccc1NS(=O)(=O)c1cccc(N2CC(O)=C(c3ccccc3)C2=N)c1,19,17,2405,-5.3,19,-52,3
